HIV Env fusion: inhibitors of HIV Env-mediated cell fusion; 360,000 compounds, 1.1% hits; HeLa-JRFL Env/CEM21 cell fusion, luciferase; AID 651610; inhibition, % at 12.3 µM;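 active = mean replicate inhibition score of at least 50 and every replicate individually at or above 50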;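 note: 0% = plate neutral controls and 100% = maraviroc near 300 nM; one replicate is shown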
Yeast UUG start: yeast start codon fidelity modulation. AID 602363. activity score, % at 18.7 µM. S. cerevisiae UUG-firefly luciferase reporter, luminescence/redox ratio. 350,000 compounds, 0.13% hits;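 active = replicate mean at a twofold rise or more, about +100% in these data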;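 note: firefly luciferase made from a UUG start codon reports start codon fidelity; reporter light over untreated wells divided by growth signal over untreated wells; some hits fall short of that in this replicate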
Rce1 inh: inhibitors of yeast Ras-converting enzyme. Q03530. yeast membranes, quenched prenylated peptide cleavage fluorescence. calls only. 290,000 compounds, 0.27% hits;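 active = fall in fluorescence gain of 50% or more versus controls, with final raw signal at or below 3038400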;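 note: plate controls were neutral control wells for no effect and wells lacking membranes for full effect; tested at 10 µM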
eIF4H inh: inhibitors of RNA binding by human eIF4H; eIF4H fluorescence polarization binding assay; inhibition, % at 35 µM; AID 2012; 290,000 compounds, 0.94% hits; Q15056;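 active = 50% or more with normal probe brightness, or confirmed in later tests; about a fifth of its hits are not listed in these tables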;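 note: calls also rest on retests at 20 µM and on dose response follow-up; 0% = protein and probe with vehicle and 100% = probe without protein; strong numbers were not always called active; many hits fall short of the cut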
PABP polyA inh: blocks human PABP binding to poly(A) RNA | fluorescence polarization | inhibition, % at 35 µM | 290,000 compounds, 1% hits;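 active = 50% or more with normal probe brightness, or confirmed in later tests; about a fifth of its hits are not listed in these tables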;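 note: calls also rest on retests at 20 µM and on dose response follow-up; controls were probe without protein and protein plus probe with vehicle; some compounds called inactive have numbers as strong as hits; many hits fall short of the cut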
Target sequence (P11940 whole entry, looked up): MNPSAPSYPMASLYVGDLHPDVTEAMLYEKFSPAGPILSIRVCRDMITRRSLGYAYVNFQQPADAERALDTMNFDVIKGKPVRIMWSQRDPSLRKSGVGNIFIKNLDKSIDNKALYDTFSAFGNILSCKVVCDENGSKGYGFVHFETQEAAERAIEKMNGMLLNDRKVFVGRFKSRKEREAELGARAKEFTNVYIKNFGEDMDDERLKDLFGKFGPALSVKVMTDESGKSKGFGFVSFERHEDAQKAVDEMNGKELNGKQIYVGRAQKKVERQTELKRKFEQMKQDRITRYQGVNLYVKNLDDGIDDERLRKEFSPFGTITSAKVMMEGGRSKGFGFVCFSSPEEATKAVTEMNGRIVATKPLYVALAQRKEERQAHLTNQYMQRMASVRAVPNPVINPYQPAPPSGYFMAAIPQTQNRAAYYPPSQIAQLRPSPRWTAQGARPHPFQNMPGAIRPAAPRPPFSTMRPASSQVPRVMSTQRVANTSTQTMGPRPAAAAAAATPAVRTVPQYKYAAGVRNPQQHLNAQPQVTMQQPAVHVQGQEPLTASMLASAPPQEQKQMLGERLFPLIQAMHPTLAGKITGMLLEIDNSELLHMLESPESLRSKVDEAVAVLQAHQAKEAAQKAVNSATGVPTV
CSC inhib: cancer stem cell inhibition; inhibition, % at 7.5 µM; 300,000 compounds, 1.1% hits; cancer stem cell-like cells viability, luminescence;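 active = mean at 75% or more and at least half the replicates too; tested in HMLE shEcad cells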;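 note: 0% = median of negative and 100% = median of positive control wells; the first replicate is given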
MT1-MMP act inh: blocks activation of human MT1-MMP | P50281 | HT1080 RFP-PRO-GFP cells, GFP/RFP ratio fluorescence, overnight; percent of plate control window, DMSO zero | GFP/RFP ratio change, % at 20 µM | 360,000 compounds, 0.061% hits | AID 651647;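 active = GFP/RFP ratio change of at least 30% with cell ATP level not reduced by more than half and red fluorescence within 50% of control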; note: strong numbers were not always called active
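Test system: HT1080 cells expressing an RFP-PRO-GFP fluorescent reporter construct / Compound dosing: single-point 20 µM compound, 1% DMSO / Schedule: cells overnight before dosing, compound overnight, 37 °C, 5% CO2 / Evaluation: GFP/RFP fluorescence ratio / Control set: DMSO and RFP-L50D-GFP cell wells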
eIF4H inh retest: also measured in eIF4H inh; calls as there; inhibition, %; compound at 20 µM; confirmation average;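 mean of two retest wells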
PABP polyA inh retest: further read-out of PABP polyA inh, marked with its call; inhibition, %; compound at 20 µM; confirmation repeats;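 mean of two retest wells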
MT1-MMP act inh RFP: also measured in MT1-MMP act inh; calls as there; RFP signal change, %; measured here: RFP expression control read;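 0 = vehicle wells; hits needed this value within 50% of zero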
* = called active by the depositor; i = inactive; · = no result given. These rows are one share of the data; the hit share may differ from the screen's.

SMILES	HIV Env fusion	Yeast UUG start	Rce1 inh	eIF4H inh	PABP polyA inh	CSC inhib	MT1-MMP act inh	MT1-MMP act inh RFP	others
O=[N+]([O-])c1ccc(Cl)cc1NCCCN1CCOCC1	-35	·	i	-3	5	-12	6	7
Cc1ccc(C(=O)NCCCn2ccnc2)cc1C	6	-7	i	·	·	-10	2	-1
COc1ccccc1C(=O)Nc1ccc(Nc2ccccc2)cc1	-1	-27	i	·	·	-10	3	1
COc1ccccc1C(=O)NCCC(=O)Nc1ccc(S(=O)(=O)N2C(C)CCCC2C)cc1 (stereo not drawn)	·	-15	·	·	·	-13	1	-8
COc1ccc(-c2nnc(SCC(=O)NC3CCCC3)n2C)cc1	-7	-17	i	-2	-7	-7	0	2
C=CCn1c(SCC(=O)Nc2ccccc2-c2ccccc2)nc2cc(C(=O)O)ccc2c1=O	18	·	i	-4	1	-11	-2	2
O=c1c(-c2ccccc2Cl)coc2c(CN3CCCCC3)c(O)ccc12	-16	2	i	-3	-8	2	2	7
O=C(CSc1ccccc1)Nc1ccc2sccc2c1	-5	-5	i	23	7	-4	-1	0
Cc1noc(C)c1-c1ccc(C(=O)NCc2cccs2)c2occc12	1	-1	·	·	·	·	12	8
COc1cc(NC(=O)C2CC2)c(OC)cc1NC(=O)c1ccco1	6	-1	i	-8	6	-8	3	2
COc1cc(/C=N/Nc2nc(C)cc(=O)[nH]2)cc(OC)c1O	-2	-6	i	4	-1	-11	1	7
COc1ccccc1NCC(=O)N/N=C/C=C/c1ccccc1	4	·	i	7	2	10	-4	-3
Cc1ccccc1NC(=O)CSc1nnc(Cc2cccn2C)n1-c1ccc(F)cc1	-22	-8	i	-5	-28	-7	1	2
COc1ccc(CCNC(=O)c2ccc(CS(=O)Cc3ccc(C)cc3)o2)cc1OC (stereo not drawn)	5	0	i	-11	-3	-18	6	1
COc1ccc(/C=N/Nc2nc(-c3ccc(Cl)cc3)cc(C(F)(F)F)n2)cc1OC	-102	·	i	-4	-8	37	-6	-7
Cc1ccc(NC(=O)Nn2cnnc2)cc1Cl	4	-11	i	0	-1	·	-1	-9
N#C/C(=C\c1ccc(-c2ccccc2[N+](=O)[O-])o1)C(=O)Nc1nc(-c2cccs2)cs1	-8	·	i	74	-1	-15	15	-1	eIF4H inh retest=10;PABP polyA inh retest=46
COc1ccc(NC(=S)N2CCN(c3ccccn3)CC2)cc1	-4	·	i	-10	-6	-8	6	4
Cc1noc(C)c1CSc1nc2ccccc2n1CCc1ccccc1	5	-34	i	-2	8	2	-7	1
O=C(CN(C(=O)CCC(=O)Nc1ccccn1)c1ccc(F)cc1)NCc1ccc(F)cc1	10	-20	i	7	16	1	1	1
CS(=O)(=O)N(CC(=O)Nc1ccc(S(=O)(=O)N2CCOCC2)cc1)c1ccccc1Cl	-5	-12	i	-10	-2	1	-1	2
O=c1c2ccccc2cnn1Cc1n[nH]c(=S)n1-c1ccccc1	-5	-7	i	1	5	-11	1	2
Cc1c(Cl)cccc1NC(=O)CCN1CCCCC1	-69	-17	i	-6	-5	-8	5	2
Cc1ccccc1N(Cc1cc(=O)[nH]c2ccccc12)C(=O)C(C)C	-9	-23	i	6	3	-7	-2	3
O=C(CSc1nc2ccccc2c(=O)[nH]1)NCc1ccc(Cl)cc1	·	-20	i	2	-2	-8	8	-3
The listing continues:
SMILES	HIV Env fusion	Yeast UUG start	Rce1 inh	eIF4H inh	PABP polyA inh	CSC inhib	MT1-MMP act inh	MT1-MMP act inh RFP	others
COc1ccc(-c2cc(C(=O)N3CCCCCC3)no2)cc1	-131	-36	i	9	9	-1	-1	0
N#Cc1cc([N+](=O)[O-])ccc1NCCN1CCOCC1	5	·	i	-2	-3	-5	-1	3
Nc1c(C(=O)Nc2ccccc2F)sc2nc(Cc3ccccc3)cc(C(F)(F)F)c12	·	-22	i	45	65	-10	-304	-5	eIF4H inh retest=9;PABP polyA inh retest=-5
CCN(CC)C(=O)COC(=O)C1CCN(S(=O)(=O)c2ccc3c(c2)OCCO3)CC1	·	-1	·	·	·	-4	0	1
Nc1ncc2c(n1)CCN(c1ccc([N+](=O)[O-])cc1)C2	-1	-7	i	-9	-4	6	0	0
Cc1nc2ccccc2c(=O)n1NC(=O)c1ccccc1F	-11	-19	i	2	-1	10	-1	0
CCOC(=O)C(C)(C)Oc1cccc2c1S(=O)(=O)c1ccccc1-2	3	13	i	·	·	-12	-3	-4
COc1cccc(C(C2=C(O)CC(C)(C)CC2=O)C2C(=O)CC(C)(C)CC2=O)c1 (stereo not drawn)	32	-8	i	-3	0	1	5	4
O=C(CCn1nnc2ccccc21)OCC(=O)c1ccc([N+](=O)[O-])cc1	11	-19	i	-7	4	-5	0	2
CCOC(=O)c1cnc2c(C)c(Cl)ccc2c1N1CCOCC1	14	-1	i	-5	-11	-13	-3	0
O=C(COC(=O)c1ccc(S(=O)(=O)Nc2ccccc2)cc1)NC1CCCC1	1	0	i	-7	13	1	3	2
CCCN1Cc2cccc(C(=O)Nc3ccc4c(c3)OCO4)c2C1=O	·	-2	i	-8	-10	11	6	-11
CCSc1nnc(C)c2ccccc12	·	-22	i	-3	0	-3	1	7
CCCn1c(C(C)C)n[nH]c1=S	-22	·	i	7	4	-6	-5	5
O=c1c2ccccc2cnn1CCOc1ccccc1	·	-80	i	-7	0	20	4	4
Cc1ccc(N(C(=O)c2csnn2)C(C(=O)NCc2ccccc2)c2ccccn2)cc1 (stereo not drawn)	-15	-12	i	1	11	3	-3	0
O=C(c1c[nH]c2ccc(S(=O)(=O)N3CCOCC3)cc2c1=O)N1CCCC1	·	-17	i	-18	-1	-7	-2	4
CN1C2C=CC(=O)C1C1C(=O)N(c3ccccc3)C(=O)C12 (stereo not drawn)	22	-9	·	·	·	·	2	-1
COc1cc(/C=C/C(=O)OCC(=O)Nc2nnc(-c3ccccc3)o2)cc(OC)c1OC	-1	-21	i	·	·	-2	16	3
COc1cccc(-c2cc(C(=O)Nc3cccc(O)c3)no2)c1	i	-48	i	13	2	·	3	-2
COC(=O)c1c(NC(=O)CN2CCN(S(=O)(=O)c3ccccc3)CC2)sc2c1CCC(C)C2 (stereo not drawn)	·	·	i	-1	26	15	·	·
CC(=O)c1cccc(NC(=O)c2ccc3c(Cl)c4c(nc3c2)CCCC4)c1	2	·	i	-9	-6	·	2	-4
O=C(CN1C(=O)c2ccccc2C1=O)N1CCN(C(=O)c2ccco2)CC1	-26	3	i	-4	0	1	4	12
O=C(C1CCN(S(=O)(=O)c2cccnc2)CC1)N1CCN(C2CCCC2)CC1	·	0	i	-8	-14	3	·	·
CC1CCN(Cc2c(C(=O)N/N=C/c3cc(Br)ccc3O)nnn2-c2nonc2N)CC1	60*	-33	i	7	4	·	-5	-8

Looked up by compound from the entries so far (2):
SMILES	HIV Env fusion	Yeast UUG start	Rce1 inh	eIF4H inh	PABP polyA inh	CSC inhib	MT1-MMP act inh	MT1-MMP act inh RFP	others
CCSc1nnc(C)c2ccccc12	·	-22	i	-3	0	-3	1	7
O=C(CN1C(=O)c2ccccc2C1=O)N1CCN(C(=O)c2ccco2)CC1	-26	3	i	-4	0	1	4	12

Continued:
SMILES	HIV Env fusion	Yeast UUG start	Rce1 inh	eIF4H inh	PABP polyA inh	CSC inhib	MT1-MMP act inh	MT1-MMP act inh RFP	others
COc1ccc(C2=NOC(C(=O)NCC(C)C)C2)cc1 (stereo not drawn)	-39	-8	i	-6	-4	-2	-2	-3
Cc1nc2ccccn2c1C(=O)NN	-1	-8	i	3	2	-11	-1	0
Cc1cc(S(=O)(=O)NCCCN2CCOCC2)ccc1F	·	·	i	-15	-1	-10	-2	3
CCN(CC)C(=O)c1oc2ccc(S(=O)(=O)N3CCCCCC3)cc2c1C	·	2	i	0	-3	2	6	-17
CC(=O)c1sc(Nc2cccc(C)c2)nc1C	-53	·	i	3	-8	-3	0	-2
COc1cccc(-n2c(SCC(=O)O)nnc2-c2cccnc2)c1	·	-10	i	6	19	1	6	3
O=C(CSc1nnc(Nc2ccccc2F)s1)c1cc2ccccc2o1	0	·	i	-4	-3	-13	-5	7

Compounds above with an aryl thioether with sulfur outside any ring (nine):
SMILES	HIV Env fusion	Yeast UUG start	Rce1 inh	eIF4H inh	PABP polyA inh	CSC inhib	MT1-MMP act inh	MT1-MMP act inh RFP	others
COc1ccc(-c2nnc(SCC(=O)NC3CCCC3)n2C)cc1	-7	-17	i	-2	-7	-7	0	2
C=CCn1c(SCC(=O)Nc2ccccc2-c2ccccc2)nc2cc(C(=O)O)ccc2c1=O	18	·	i	-4	1	-11	-2	2
O=C(CSc1ccccc1)Nc1ccc2sccc2c1	-5	-5	i	23	7	-4	-1	0
Cc1ccccc1NC(=O)CSc1nnc(Cc2cccn2C)n1-c1ccc(F)cc1	-22	-8	i	-5	-28	-7	1	2
Cc1noc(C)c1CSc1nc2ccccc2n1CCc1ccccc1	5	-34	i	-2	8	2	-7	1
O=C(CSc1nc2ccccc2c(=O)[nH]1)NCc1ccc(Cl)cc1	·	-20	i	2	-2	-8	8	-3
CCSc1nnc(C)c2ccccc12	·	-22	i	-3	0	-3	1	7
COc1cccc(-n2c(SCC(=O)O)nnc2-c2cccnc2)c1	·	-10	i	6	19	1	6	3
O=C(CSc1nnc(Nc2ccccc2F)s1)c1cc2ccccc2o1	0	·	i	-4	-3	-13	-5	7
